Bioassay records deposited in PubChem BioAssay by National Center for Advancing Translational Sciences (NCATS).
Methyltransferases: Primary Screen for Target Class Profiling of Small Molecule Inhibitors of Methyltransferases; purified enzyme, MTase-Glo SAH luminescence; active compounds read low; calls only at 40 µM; 25,000 compounds, 3.9% hits; AID 1745853, 2022; active = -50% or lower on at least one of six enzymes; inconclusive = the cases between; inactive = as a rule above -30% on all six;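 also: enzymes were COMT GAMT GNMT HNMT NNMT and PNMT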
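Each enzyme was assayed with SAM and its substrate. SAH formation detected by MTase-Glo luminescence; single-point 40 uM screen[…].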
Calls only; i = inactive; ? = inconclusive; + = active, no number. % is scaled to controls: 0 for no effect and ±100 for the full control effect.

canonical_smiles	Methyltransferases
CC(=O)OC1CC(C)(C(=O)O)CC2C3=CC(=O)C4C5(C)CCC(OC6OC(C(=O)O)C(O)C(O)C6OC6OC(C(=O)O)C(O)C(O)C6O)C(C)(C)C5CCC4(C)C3(C)CCC12C (stereo not given)	i
COc1ccc(-c2cc3n(n2)CC(C)(C(=O)NCc2ccccc2)N(Cc2ccc(SC)cc2)C3=O)cc1 (stereo not given)	i
O=C(NCc1cccc(O)c1)Nc1nc(-c2ccncc2)cs1	i
O=C1CC2CCN(Cc3coc(-c4ccccc4)n3)CC2CCN1 (stereo not given)	i
C[C@@H]1C[C@H]2O[C@@H]2/C=C\C=C\C(=O)Cc2c(Cl)c(O)cc(O)c2C(=O)O1	?
O=C(/C=C\c1ccc(O)cc1)N[C@@H](Cc1ccc(O)cc1)C(=O)O	i
CN(CCCN1c2ccccc2CCc2ccccc21)C(=O)C1CNCCO1 (stereo not given)	i
COCCNC(=O)N1CCCC(CNC(=O)c2cccc3ccccc23)C1 (stereo not given)	i
O=S(=O)(c1ccccc1)c1nnn2c1nc(N1CCCC1)c1cc(Cl)ccc12	i
Cc1ccc(CNC(=O)C2(C)Cc3ccccc3C(=O)N2Cc2cc(F)cc(F)c2)cc1 (stereo not given)	i
CC1(C(=O)O)CC[C@]2(C(=O)OC3OC(CO)C(O)C(O)C3O)CC[C@]3(C)C(=CCC4[C@@]5(C)CC[C@H](OC6OCC(O)C(O)C6OC6OC(CO)C(O)C(O)C6O)C(C)(C)C5CC[C@]43C)C2C1 (stereo not given in full)	i
Cc1cc(C)cc(NS(=O)(=O)c2cc3c(cc2Cl)n(C)c(=O)n3C)c1	i
Cc1nc(N=Nc2ccc(C(=O)O)cc2)c(COP(=O)(O)O)c(C=O)c1O	i
C=C1CC[C@H]2[C@@](C)(CCC[C@@]2(C)C(=O)O)[C@@H]1CCC(C)CCO (stereo not given in full)	?
CC(C)C(=O)N1CCCCCCNC(=O)[C@@H]2C[C@@H](C(=O)NCCc3c[nH]c4ccccc34)C[C@@H]21	i
Cc1cc2c(cc3n2CC(C)(C(=O)NC2CCCCCCC2)N(CCCN2CCCCCC2)C3=O)o1 (stereo not given)	i
O=C(O)c1ccc(N2C(=O)/C(=C/c3ccc(-c4ccc([N+](=O)[O-])cc4)o3)C=C2c2ccccc2)cc1	?
CCCCN(C)CCCN1C(=O)c2cc3occc3n2CC1(C)C(=O)NC1CCCCCC1 (stereo not given)	i
CCc1ccccc1NC(=O)CSc1nnc2n(CCC(C)C)c(=O)c3ccccc3n12	i
CCC(C)NC(=O)c1ccc2c(=O)n(C)c3nn(Cc4cccc(OC)c4)c(=O)n3c2c1 (stereo not given)	i
Cc1ccc(CNC(=O)N2CCn3cccc3C2Cc2ccccc2)cc1 (stereo not given)	i
CCn1c(C(=O)OC)c(NC(C)=O)c2cc(NC(C)Cc3ccccc3OC)cnc21 (stereo not given)	i
COc1ccc2cc3n(c2c1)CC(C)(C(=O)NC1CCCC1)N(Cc1ccccc1)C3=O (stereo not given)	i
CC[C@@H](C)Nc1cc(C(=O)NC2CC3CC[C@@H](C2)N3c2ccc(C(=O)C3CC3)cn2)c(C)cc1C(N)=O (stereo not given in full)	?
Cn1ncc(N2CCC(CNC(=O)c3cccc4ccnn34)C2)cc1=O (stereo not given)	i
CCN1CCN(CCCN2CC3(CCN(Cc4ncc[nH]4)CC3)OC2=O)CC1	i
Cc1ccccc1C(CC(=O)N1CCSCC1)c1ccccc1 (stereo not given)	i
Cc1ncc2n1C(=O)N(C1CCN(Cc3ccncc3)CC1)C2	i
Cc1ccc(CN2C(=O)c3cc(-c4cccs4)nn3CC2(C)C(=O)NC2CCCCCC2)cc1 (stereo not given)	i
NC(=O)c1ccc2c(c1)C1(CCN(CC3CC3)C1)CN2Cc1ccccc1 (stereo not given)	?
CCCN1C(=O)c2c(C(=O)NCc3cc(OC)ccc3OC)ncn2CC1(C)C(=O)NCc1ccc(C)cc1 (stereo not given)	i
CC(C)C(N)C(=O)OCCOCn1cnc2c(=O)[nH]c(N)nc21 (stereo not given)	?
CN(c1ccccc1)c1ccc2ncn(C3CC3)c(=O)c2n1	i
CCOc1cccc(C2c3cccn3-c3sc4c(c3CN2C(=O)Nc2ccccc2OC)CCCC4)c1 (stereo not given)	i
CCc1ccc(NC(=O)Cn2nc3n(CCC(C)C)c(=O)c4ccc(C(=O)NC(C)C)cc4n3c2=O)cc1	i
COc1ccc(CNC(=O)Cn2nc3n(CCCOC(C)C)c(=O)c4ccccc4n3c2=O)cc1	i
C[C@H]1CC2C3CCC4=CC(=O)C=C[C@]4(C)[C@@]3(Cl)[C@@H](O)C[C@]2(C)[C@@]1(O)C(=O)CO (stereo not given in full)	i
CC(C)NS(=O)(=O)c1ccc2[nH]c(=O)[nH]c2c1	i
CCCn1c(=O)c2ccc(C(=O)NC(C)C)cc2n2c(=O)n(CC(=O)Nc3ccccc3)nc12	i
Cc1cc(C)cc(NC(=O)CCc2nnc3n(Cc4ccccc4Cl)c(=O)c4ccccc4n23)c1	i
CCCn1c(=O)c2cc(F)ccc2n2c(SCc3cccc(OC)c3)nnc12	i
O=C(O)CSc1cc(NS(=O)(=O)c2ccc(Br)cc2)c2ccccc2c1O	+
CN1C(=O)c2cccn2CC1C(=O)NC1CCCC1 (stereo not given)	i
CC(C)CCn1c(=O)c2ccc(C(=O)NCC(C)C)cc2n2c(=O)n(Cc3ccccc3)nc12	i
Cc1cccc(-c2nnn3c2nc(NC2CCCC2)c2ccccc23)c1	i
CCN1C(=O)c2cc(C(=O)NCc3ccc(C)cc3)nn2CC1(C)C(=O)NC1CCCC1 (stereo not given)	i
Cc1c(Cl)cccc1N1C(=O)c2cc3occc3n2CC1(C)C(=O)NC1CCCCC1 (stereo not given)	i
CC(C)c1noc(N2CCC(COc3ccc(-c4ccc(S(C)(=O)=O)cc4)nc3)CC2)n1	i
O=C(NCCc1ccc(Cl)cc1)c1cc(-c2cccs2)c2cccn2n1	i
Cc1noc(C)c1S(=O)(=O)N1CC(c2noc(C3CCCN3C)n2)C1 (stereo not given)	i

(next part)
canonical_smiles	Methyltransferases
O=C(O)C1=NOC2CN([S+](=O)([O-])c3cc(C(F)(F)F)cc(C(F)(F)F)c3)CC12 (stereo not given)	i
Cc1ccc(N2C(=O)c3cc4occc4n3CC2(C)C(=O)NC2CCC(C)CC2)cc1C (stereo not given)	i
CCCn1c(=O)c2ccc(Cl)cc2n2c(=O)n(CC(=O)c3cc(C)ccc3C)nc12	i
CCCC1=CC2=C(CO1)C(=O)C(C)(O)C(OC(=O)c1c(C)cc(OC)cc1O)C2 (stereo not given)	i
CCCn1c(=O)c2cc(Cl)ccc2n2c(SCC(=O)Nc3ccc4c(c3)OCCO4)nnc12	i
Cc1nnc([C@@H]2CC(F)(F)CN2C(=O)c2conc2C)o1	i
Cn1c(=O)n(C)c2cc(NS(=O)(=O)c3ccc(N4CCCC4=O)cc3)ccc21	i
COc1ccc(CNC(=O)c2ncn3c2C(=O)N(C2CC2)C(C)(C(=O)NCc2ccc(C)cc2)C3)cc1 (stereo not given)	i
COC(=O)c1cc2n(n1)CC(C)(C(=O)NC1CCCC1)N(c1cc(Cl)ccc1C)C2=O (stereo not given)	i
COc1ccc(N2C(=O)c3cc4sccc4n3CC2(C)C(=O)NC2CCCCC2)cc1OC (stereo not given)	i
COc1ccc(-c2nnn3c2nc(NCCc2ccc(OC)c(OC)c2)c2ccccc23)cc1	?
CCc1ccc(N2C(=O)c3cc4sccc4n3CC2(C)C(=O)NC2CCCCC2C)cc1 (stereo not given)	i
Cc1ccc(CNC(=O)CCc2nnc3n(CC(C)C)c(=O)c4ccccc4n23)cc1	i
O=C(C1CCCC1)N1CCC2(CC1)CC(c1ccccc1)=NO2	i
Cc1cc(C(=O)N2CCN(c3cccc(Cl)c3)CC2)n(-c2ccccc2)n1	i
Cc1ncccc1C(=O)N1CCCN(C(=O)C2CC2)C(c2ccccc2)CC(=O)NCC1 (stereo not given)	i
COc1ccc(-c2ccccc2)cc1NS(=O)(=O)c1cc(Cl)cc(Cl)c1O	?
CC[C@H]1OC(=O)[C@H](C)[C@@H](O[C@H]2C[C@@](C)(OC)[C@@H](O)[C@H](C)O2)[C@H](C)[C@@H](O[C@@H]2O[C@H](C)C[C@H](N(C)C)[C@H]2O)[C@](C)(O)C[C@@H](C)C(=O)[C@H](C)[C@@H](O)[C@]1(C)O	?
CCN(CC)CCNC(=O)CCc1nnc2n(Cc3ccccc3)c(=O)c3ccccc3n12	i
CCCn1c(=O)c2ccc(Cl)cc2n2c(=O)n(CC(=O)Nc3cc(OC)cc(OC)c3)nc12	i
O=C(Cn1c(=O)c2ccc(Cl)cc2n2nncc12)Nc1ccc(Oc2ccccc2)cc1	i
COc1cc(OC)cc(-c2onc(C)c2C(=O)NCc2ccccc2C)c1	i
CN1C[C@H]2CNC[C@@]2(C(=O)NCc2ccccc2OCc2ccccc2)C1	i
C[C@]12C[C@H](O)[C@H]3[C@@H](CCC4=CC(=O)CC[C@@]43C)[C@@H]1CC[C@@H]2C(=O)CO	i
COc1ccc(-c2nn(-c3ccccc3)cc2CN2CCC(F)CC2)c(F)c1	i
C/C1=C\CCC2=C[C@@H](OC2=O)c2c(C)coc2C1	i
Cc1ccc(S(=O)(=O)c2nnn3c2nc(NCCCOC(C)C)c2cc(Cl)ccc23)cc1C	i
Cc1cccc(-c2n[nH]n3c2nc(=O)c2ccc(C(=O)N4CCN(c5ccccc5)CC4)cc23)c1	i
O=C(Cn1ccc2cc(S(=O)(=O)N3CCCC3)ccc21)NCCc1ccccc1Cl	i
CNC(=O)[C@@H](C1CC1)N1CCC[C@H]1C(=O)NCc1cccnc1	i

Among those listed so far, these have fluorine:
canonical_smiles	Methyltransferases
Cc1ccc(CNC(=O)C2(C)Cc3ccccc3C(=O)N2Cc2cc(F)cc(F)c2)cc1 (stereo not given)	i
CCCn1c(=O)c2cc(F)ccc2n2c(SCc3cccc(OC)c3)nnc12	i
O=C(O)C1=NOC2CN([S+](=O)([O-])c3cc(C(F)(F)F)cc(C(F)(F)F)c3)CC12 (stereo not given)	i
Cc1nnc([C@@H]2CC(F)(F)CN2C(=O)c2conc2C)o1	i
COc1ccc(-c2nn(-c3ccccc3)cc2CN2CCC(F)CC2)c(F)c1	i

Additional results follow:
canonical_smiles	Methyltransferases
C[C@@H]1CC[C@]2(C)C(C[C@@H](O)[C@H](O)[C@]23CO3)[C@@]1(C)CCc1ccoc1 (stereo not given in full)	i
CC1(C(=O)NCc2ccccc2)Cn2c(nc3ccccc32)C(=O)N1CCCc1ccccc1 (stereo not given)	i
COc1ccccc1CNC(=O)C1(C)Cn2c(cc3ccccc32)C(=O)N1Cc1ccc(OC(C)C)cc1 (stereo not given)	i
CC(C)=CCC[C@](C)(O[C@@H]1O[C@H](CO[C@@H]2O[C@H](CO)[C@@H](O)[C@H](O)[C@H]2O)[C@@H](O)[C@H](O)[C@H]1O)C1CC[C@]2(C)[C@@H]1[C@H](O)CC1[C@@]3(C)CC[C@H](O[C@@H]4O[C@H](CO)[C@@H](O)[C@H](O)[C@H]4O[C@@H]4O[C@H](CO)[C@@H](O)[C@H](O)[C@H]4O)C(C)(C)[C@@H]3CC[C@]12C (stereo not given in full)	?
Cc1cn[nH]c1	i
Cc1ccccc1N(C)C1CN([S+](=O)([O-])c2c(C)noc2C)C1	i
CCCn1c(=O)c2cc(F)ccc2n2c(SCC(=O)NCc3ccc(C)cc3)nnc12	i
CC(=O)OC/C(=C/C(=O)O)CC[C@@H]1C(CO)=CC[C@@H]2C(C)(C)CCC[C@@]12C	+
CC(C)(CC(=O)N1CCCC1)NCC(=O)N1C[C@@H](F)C[C@H]1C#N	i
CN(C)c1cccc(Oc2cnc(Nc3cccc(O)c3)nc2)c1	i
O=C(c1ccccc1-c1ccccc1)N1CCCn2cncc2C1	i
Cc1cc2c(cc3n2CC(C)(C(=O)NC2CCCCCC2)N(CCN2CCCCCC2)C3=O)o1 (stereo not given)	i
O=C(NCCCc1ccccc1)C1CCC(CNS(=O)(=O)c2cccc3nsnc23)CC1 (stereo not given)	i
C[C@@H]1C(=O)O[C@H]2[C@H]1CC[C@@]1(C)Cc3sc(NC(=O)COc4ccccc4)nc3[C@@H](C)[C@H]21	i
CC1(C)C2CC=C(COC3OC(COC4OCC(O)(CO)C4O)C(O)C(O)C3O)C1C2 (stereo not given)	i
CCC(C)NC(=O)CCc1nnc2n(Cc3ccc(Cl)cc3)c(=O)c3ccccc3n12 (stereo not given)	i
O=C1COc2ccc(Nc3ccc(C(F)(F)F)cc3)nc2CN1	i
CCN1C(=O)C2(CCN(S(=O)(=O)c3cc(C)ccc3C)CC2)c2ccccc21	i
Cc1ccc(NC(=O)CSc2nnc3[nH]c(=O)c(C)nn23)c(C)c1	i
C#CCNC(=O)CC[C@@H]1CNC(=O)[C@@H]2C[C@H](NC(=O)c3ccco3)CN12	i
Cc1cccc(CN2C(=O)c3ccc(-c4ccccc4)n3CC2(C)C(=O)NC2CCCCC2)c1 (stereo not given)	i
CC(C)Cn1c(=O)c2ccccc2n2c(=O)n(Cc3cccc(Cl)c3)nc12	i
CC(C)/C=C1\NC(=O)C(C(C)C)n2c1nc1ccccc1c2=O (stereo not given)	i

Some of the entries so far, with each value named.
> CC1(C)C2CC=C(COC3OC(COC4OCC(O)(CO)C4O)C(O)C(O)C3O)C1C2 (stereo not given)
  Methyltransferases: i
> CCN1C(=O)C2(CCN(S(=O)(=O)c3cc(C)ccc3C)CC2)c2ccccc21
  Methyltransferases: i

The list is partial; the hit share may differ from the screen's.
